Screening results as filed in PubChem.
BJeLR lethal – kills HRASV12-expressing BJeLR cells. BJeLR (HRASV12) viability, CellTiter-Glo ATP luminescence, 48 h; reference of the scale not given here. inhibition, % (test concentration not listed). actives 0.17% (n = 300,000). AID 1554;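 active = replicate mean above 50%; inconclusive = above 50% but judged a plate artefact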;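 also: 50 nL library stock added to about 25 µL; numbers are from one replicate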
RN4220 kill – kills Staphylococcus aureus RN4220. actives 0.33% (n = 330,000). S. aureus RN4220 growth, OD600, 16 h. inhibition, % (concentration not given with the values). AID 1259311;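 active = z-score of -3 or lower and OD600 up to 0.18 on both plates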;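 also: plate controls were untreated cells for no effect and reference antibiotic for full effect; stock transfer was 100 nL into about 80 µL; one replicate is shown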
Bead autofluor – compound fluorescence in toxin protease inhibitor counterscreen; fluorescence intensity (test concentration not listed); compound autofluorescence counterscreen, microsphere flow cytometry; stronger effect = higher value; actives 3.1% (n = 360,000);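 active = at least 3 SD above the mean of all compounds, about 16000 in these data; inconclusive = too few beads counted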;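 also: 100 nL of 1 mM stock went into each well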
ugtP null kill – compounds lethal to S. aureus RN4220 ugtP deletion mutant; growth inhibition, % (no concentration beside the values); OD600 growth, 16 h; some inactives read as strong as hits; AID 1259309; actives 0.54% (n = 330,000);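 active = z-score under -3 and OD600 up to 0.15 on both plates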;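 also: plate controls were untreated wells for no effect and antibiotic for full effect; wells of about 80 µL received 100 nL stock; the first replicate is given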
Mtb hypoxia rep – inhibitors of hypoxia-regulated fluorescent reporter in Mycobacterium tuberculosis; M. tuberculosis hypoxia-regulated fluorescent reporter, fluorescence; fluorescence inhibition, % (concentration not given with the values); actives 0.1% (n = 300,000); AID 1159583;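 active = 35 to 45% if threefold the growth effect, above 45% if 1.5-fold the growth effect; inactive = the rest, general growth blockers included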;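 also: wells of about 50 µL received 100 nL stock; 0% = vehicle wells and 100% = reference inhibitor wells; whole bacteria with a GFP reporter of the hypoxia response; strong numbers were not always called active; many hits fall short of the cut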
PrP UTR inh – inhibition of PrP 5' UTR reporter expression; cell-based PrP 5' UTR mRNA reporter, plate reader; inhibition, % (concentration not given with the values); AID 488862; actives 0.35% (n = 340,000);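 active = every replicate at 50% or more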;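 also: 0 = median of the neutral control wells; tested in H4 reporter cells; numbers are from one replicate; inactives centre near -14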
Mtb hypoxia rep growth – recorded beside Mtb hypoxia rep, whose call it bears; growth inhibition, %; measured here: M. tuberculosis growth (absorbance);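 0% = vehicle and 100% = reference antibiotic; read after six days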
* hit, by the source's call.

Results for COP(=O)(OC)C(NS(=O)(=O)c1ccccc1)C(Cl)(Cl)Cl (stereo unspecified) ?
BJeLR lethal: -4; RN4220 kill: -4.0; Bead autofluor: 3259; ugtP null kill: -4; Mtb hypoxia rep: 0; PrP UTR inh: 45; Mtb hypoxia rep growth: 2

How did Cc1c(NC(=O)C2Cc3ccccc3CN2C(=O)c2ccco2)c(=O)n(-c2ccccc2)n1C (stereo unspecified) do in these assays?
BJeLR lethal: -4; RN4220 kill: -2.5; Bead autofluor: 2629; ugtP null kill: -4; Mtb hypoxia rep: -6; PrP UTR inh: -11; Mtb hypoxia rep growth: 2

Results for CCN(CC)c1ccc(C=NN2CCN(Cc3ccc(C)cc3)CC2)cc1 ?
RN4220 kill: 2.1; ugtP null kill: -2; Mtb hypoxia rep: -7; Mtb hypoxia rep growth: 12

Results for N/C(Cc1ccc([N+](=O)[O-])cc1)=N\OC(=O)CC1CCCCC1 ?
BJeLR lethal: -4; Bead autofluor: 2401; PrP UTR inh: -31

How did CC(C)(C)c1ccc(S(=O)(=O)N2CCC(CO)(CC3CCCCO3)CC2)cc1 (stereo unspecified) do in these assays?
BJeLR lethal: 0; RN4220 kill: 4.7; Bead autofluor: 4045; ugtP null kill: 8; Mtb hypoxia rep: 2; PrP UTR inh: 11; Mtb hypoxia rep growth: 0

How did COc1ccc(C2(c3ccc(OC)cc3)NC(=O)N(CC(=O)Nc3cc(C)on3)C2=O)cc1 do in these assays?
RN4220 kill: 0.2; Bead autofluor: 3549; ugtP null kill: 5; Mtb hypoxia rep: -1; PrP UTR inh: -23; Mtb hypoxia rep growth: 6

Results for Cc1ccc(S(=O)(=O)N2CCN(CC(=O)Nc3ccc(N4CCOCC4)cc3)CC2)cc1C ?
BJeLR lethal: 6; RN4220 kill: 4.4; Bead autofluor: 7460; ugtP null kill: 1; Mtb hypoxia rep: 8; PrP UTR inh: -6; Mtb hypoxia rep growth: 0

What do the screens show for `COc1ccc(N2C(=O)C3CCCN3C2=S)cc1` (stereo unspecified)?
BJeLR lethal: 2; RN4220 kill: 1.7; Bead autofluor: 6137; ugtP null kill: 5; Mtb hypoxia rep: -9; PrP UTR inh: -26; Mtb hypoxia rep growth: -3

How did CCCn1c(N)c(N(CCOC)C(=O)c2ccc(N(C)S(=O)(=O)c3ccc(C)cc3)cc2)c(=O)[nH]c1=O do in these assays?
BJeLR lethal: 1; RN4220 kill: 2.4; Bead autofluor: inconclusive; ugtP null kill: 0; Mtb hypoxia rep: 1; PrP UTR inh: -21; Mtb hypoxia rep growth: 0

What do the screens show for `O=C(Nc1ccc(S(=O)(=O)N2CCCC2)cc1)C1CC(=O)N(CCc2ccc(F)cc2)C1` (stereo unspecified)?
RN4220 kill: 3.6; Bead autofluor: 5130; ugtP null kill: 1; Mtb hypoxia rep: 11; PrP UTR inh: -9; Mtb hypoxia rep growth: 5

How did O=C(CSc1ccc2nnc(-c3cccnc3)n2n1)Nc1ccccc1 do in these assays?
BJeLR lethal: -6; RN4220 kill: 2.5; Bead autofluor: 6608; ugtP null kill: 13; Mtb hypoxia rep: 9; PrP UTR inh: -2; Mtb hypoxia rep growth: 0

How did CC(C)NC(=O)CSc1nc(N)c(NC(=O)c2ccccc2F)c(=O)[nH]1 do in these assays?
BJeLR lethal: -16; Bead autofluor: 2141; PrP UTR inh: -16

Results for CC(C)CCNC(=O)Cn1c(NCCC(C)C)nc2c1c(=O)n(C)c(=O)n2C ?
BJeLR lethal: -4; RN4220 kill: -0.1; ugtP null kill: 7; Mtb hypoxia rep: 2; Mtb hypoxia rep growth: 4

How did COc1ccc(N2CC(C(=O)N/N=C/c3cccs3)CC2=O)cc1 (stereo unspecified) do in these assays?
BJeLR lethal: 19; Bead autofluor: 2641; PrP UTR inh: -4

What do the screens show for `CC(C)OCC1CC(CC(=O)NC(=S)Nc2cccc([N+](=O)[O-])c2)C(=O)O1` (stereo unspecified)?
BJeLR lethal: -5; RN4220 kill: 3.6; Bead autofluor: 11291; ugtP null kill: -6; Mtb hypoxia rep: 2; PrP UTR inh: 10; Mtb hypoxia rep growth: 13

Results for COc1ccc(-n2c(C)nc3c(cnn3-c3ccc(Cl)cc3)c2=O)cc1 ?
BJeLR lethal: -5; RN4220 kill: -3.4; Bead autofluor: 4734; ugtP null kill: 0; PrP UTR inh: -21

What do the screens show for `CN(C)S(=O)(=O)N1CCN(C(=O)c2cccc(Br)c2)CC1`?
BJeLR lethal: -3; RN4220 kill: 5.5; Bead autofluor: 12993; ugtP null kill: 11; Mtb hypoxia rep: 18; PrP UTR inh: -24; Mtb hypoxia rep growth: 7

What do the screens show for `O=c1[nH]c(/C=C/c2ccccc2Cl)c([N+](=O)[O-])c(=O)[nH]1`?
BJeLR lethal: -7; RN4220 kill: 7.0; Bead autofluor: 3987; ugtP null kill: 8; Mtb hypoxia rep: 0; PrP UTR inh: -15; Mtb hypoxia rep growth: 0

What do the screens show for `O=C(NCc1ccccc1)C(=O)NCC1COc2ccccc2O1` (stereo unspecified)?
BJeLR lethal: 3; RN4220 kill: 0.1; Bead autofluor: 4553; ugtP null kill: 1; PrP UTR inh: -17

Results for COc1ccccc1Nc1nc(N)nc(CN2CCN(Cc3ccccc3)CC2)n1 ?
BJeLR lethal: 1; RN4220 kill: -0.4; Bead autofluor: 10008; ugtP null kill: -9; Mtb hypoxia rep: -6; PrP UTR inh: -31; Mtb hypoxia rep growth: -10

Results for CCn1cc(C(=O)N(CCC(C)C)c2c(N)n(Cc3ccccc3)c(=O)[nH]c2=O)c(=O)c2ccc(C)nc21 ?
BJeLR lethal: 4; RN4220 kill: 1.6; Bead autofluor: 3320; ugtP null kill: -2; Mtb hypoxia rep: 3; PrP UTR inh: -19; Mtb hypoxia rep growth: 2

How did C=CCOc1ccccc1CN1CCCN(C)CC1 do in these assays?
BJeLR lethal: -1; RN4220 kill: 2.8; Bead autofluor: 3782; ugtP null kill: 5; Mtb hypoxia rep: 4; PrP UTR inh: -21; Mtb hypoxia rep growth: -11

How did O=C(Nc1ccccc1C(F)(F)F)c1cc(-c2ccc(O)cc2)on1 do in these assays?
BJeLR lethal: -1; RN4220 kill: -7.8; Bead autofluor: 11519; ugtP null kill: 15; Mtb hypoxia rep: 10; PrP UTR inh: -14; Mtb hypoxia rep growth: 0

Results for COc1ccc(OC)c(NC(=O)CCNC(=O)c2ccco2)c1 ?
BJeLR lethal: 5; RN4220 kill: 1.1; Bead autofluor: 3848; ugtP null kill: 4; Mtb hypoxia rep: -3; PrP UTR inh: -21; Mtb hypoxia rep growth: -3

How did CCCn1nc2ccccc2c1P(=O)(N1CCOCC1)N1CCOCC1 do in these assays?
BJeLR lethal: 6; RN4220 kill: 1.3; Bead autofluor: 10739; ugtP null kill: 12; Mtb hypoxia rep: 5; PrP UTR inh: 6; Mtb hypoxia rep growth: 2

Results for NC(N)=Nc1ccc(N=C(N)N)cc1 ?
BJeLR lethal: -5; Bead autofluor: 3652; PrP UTR inh: -25

Results for CCn1cc(C(=O)N[C@@H](C)C(=O)NCCCn2ccnc2)c(=O)c2cc3c(cc21)OCO3 ?
BJeLR lethal: 3; RN4220 kill: 0.2; Bead autofluor: 5136; ugtP null kill: 4; Mtb hypoxia rep: 4; PrP UTR inh: -18; Mtb hypoxia rep growth: -6

How did CC1CN(Cc2ccccc2)C(=O)C1CC(=O)NCc1ccccc1 (stereo unspecified) do in these assays?
RN4220 kill: 0.5; ugtP null kill: 0; Mtb hypoxia rep: 1; Mtb hypoxia rep growth: 13

Results for O=C(CN(c1cccc(Br)c1)S(=O)(=O)c1ccccc1)N/N=C/c1cc([N+](=O)[O-])ccc1O ?
BJeLR lethal: -4; Bead autofluor: 6109; PrP UTR inh: -9

How did CCOc1ccc(S(=O)(=O)N2CCC(C(=O)NCCc3ccccc3)CC2)cc1 do in these assays?
BJeLR lethal: 7; RN4220 kill: -0.9; Bead autofluor: 3946; ugtP null kill: -3; Mtb hypoxia rep: 12; PrP UTR inh: -14; Mtb hypoxia rep growth: 1

A portion taken from the entries so far, as a working copy:
How did CC1CN(Cc2ccccc2)C(=O)C1CC(=O)NCc1ccccc1 (stereo unspecified) do in these assays?
RN4220 kill: 0.5; ugtP null kill: 0; Mtb hypoxia rep: 1; Mtb hypoxia rep growth: 13

Results for O=C(CN(c1cccc(Br)c1)S(=O)(=O)c1ccccc1)N/N=C/c1cc([N+](=O)[O-])ccc1O ?
BJeLR lethal: -4; Bead autofluor: 6109; PrP UTR inh: -9

How did CCOc1ccc(S(=O)(=O)N2CCC(C(=O)NCCc3ccccc3)CC2)cc1 do in these assays?
BJeLR lethal: 7; RN4220 kill: -0.9; Bead autofluor: 3946; ugtP null kill: -3; Mtb hypoxia rep: 12; PrP UTR inh: -14; Mtb hypoxia rep growth: 1

Later entries
How did O=[N+]([O-])c1c(O)c(Cl)cc(Cl)c1Cl (tested in a mixture with another compound) do in these assays?
RN4220 kill: 58; Bead autofluor: 3024; ugtP null kill: 41; Mtb hypoxia rep: 26; PrP UTR inh: -9; Mtb hypoxia rep growth: 14

What do the screens show for `Cc1ccc(NC(=O)C2CCN(C(=O)NCc3ccccc3)CC2)cc1C`?
BJeLR lethal: 1; RN4220 kill: 1.9; Bead autofluor: 4459; ugtP null kill: 1; Mtb hypoxia rep: -5; PrP UTR inh: -11; Mtb hypoxia rep growth: -3

What do the screens show for `COc1cccc(C(=O)CC(=O)C(=O)Nc2cc(Cl)c(OC)cc2OC)c1`?
BJeLR lethal: 9; RN4220 kill: 8.6; Bead autofluor: 4572; ugtP null kill: 0; Mtb hypoxia rep: 2; Mtb hypoxia rep growth: -4

How did COc1ccc(-c2oc(=O)c3cc(OC)c(OC)cc3c2C#CC2(O)CCCCC2)cc1 do in these assays?
RN4220 kill: 10; Bead autofluor: 4011; ugtP null kill: 5; Mtb hypoxia rep: -10; PrP UTR inh: -11; Mtb hypoxia rep growth: 5

What do the screens show for `CC1CCc2c(sc3nc(CN4CCN(S(=O)(=O)c5ccccc5[N+](=O)[O-])CC4)[nH]c(=O)c23)C1` (stereo unspecified)?
BJeLR lethal: 5; RN4220 kill: 3.2; Bead autofluor: 9871; ugtP null kill: -17; Mtb hypoxia rep: 3; PrP UTR inh: -18; Mtb hypoxia rep growth: 10

Results for O=C(COC(=O)c1cccc(S(=O)(=O)N2CCOCC2)c1)NCCc1ccccc1 ?
BJeLR lethal: 0; RN4220 kill: 3.0; Bead autofluor: 4703; ugtP null kill: 2; Mtb hypoxia rep: -6; PrP UTR inh: -12; Mtb hypoxia rep growth: -14

What do the screens show for `O=C(CSc1nnnn1-c1cccc2c1CCCC2)N1CCOCC1`?
BJeLR lethal: -3; RN4220 kill: 5.1; Bead autofluor: 9993; ugtP null kill: 0; Mtb hypoxia rep: 4; PrP UTR inh: -12; Mtb hypoxia rep growth: -4

How did O=Cc1cccn1-c1ccccc1 do in these assays?
BJeLR lethal: 1; RN4220 kill: 2.4; Bead autofluor: 5589; ugtP null kill: 6; PrP UTR inh: -14

How did CCn1cc(CN2CCC(Oc3ccc(C(=O)N4CCCCC4)cc3)CC2)cn1 do in these assays?
BJeLR lethal: -2; RN4220 kill: -5.6; Bead autofluor: inconclusive; ugtP null kill: -13; Mtb hypoxia rep: -9; PrP UTR inh: 0; Mtb hypoxia rep growth: 7

What do the screens show for `C=CCOc1ccc2c(c1)CCC1C2CCC2(C)C(O)C(O)CC12` (stereo unspecified)?
RN4220 kill: -7.9; Bead autofluor: 3731; ugtP null kill: 84*; Mtb hypoxia rep: -6; PrP UTR inh: -50; Mtb hypoxia rep growth: 1

How did COc1ccc(CCNC(=O)c2ccc(Cl)c(S(=O)(=O)N3CCCCCC3)c2)cc1 do in these assays?
RN4220 kill: -2.1; Bead autofluor: 7679; ugtP null kill: -5; Mtb hypoxia rep: 3; PrP UTR inh: -17; Mtb hypoxia rep growth: 0

What do the screens show for `CCCSc1nc2c3c(sc2c(=O)[nH]1)CC(C)(CC)OC3` (stereo unspecified)?
BJeLR lethal: -4; RN4220 kill: -1.1; Bead autofluor: 4352; ugtP null kill: -10; Mtb hypoxia rep: -6; PrP UTR inh: -41; Mtb hypoxia rep growth: -2

How did S=c1[nH]nc(COc2ccccc2)n1N=Cc1c(Cl)cccc1Cl do in these assays?
RN4220 kill: 7.2; ugtP null kill: -3; Mtb hypoxia rep: -7; Mtb hypoxia rep growth: 5
